T cruzi inh: T. cruzi replication inhibition | 300,000 compounds, 1.4% hits | inhibition, % (no concentration beside the values) | AID 1885 | T. cruzi beta-gal in NIH3T3, luminescence, 90 h;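 active = mean inhibition across valid replicates above about 55%, limit read from the data; inconclusive = mean below that limit but half or more replicates reach it; inactive = mean below it, under half of replicates reach it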;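 also: signal also drops with host cell toxicity which is not excluded here; 0% = plate median of DMSO wells and 100% = zero luminescence signal; higher percent means less beta-gal luminescence so fewer parasites; stock transfer was 50 nL into about 50 µL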
Calb FLC: affects C. albicans growth with fluconazole; C. albicans CaCi-2 (fluconazole-resistant clinical isolate) + fluconazole, Alamar Blue growth, 48 h; growth inhibition, % (concentration not given with the values); 300,000 compounds, 0.57% hits;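 active = most replicates above 75%; inconclusive = exactly half above 75%; inactive = most below 75%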;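 also: all wells also contain fluconazole at 8 µg/ml as a sub-toxic cotreatment; 0% = median of DMSO wells and 100% = median of geldanamycin control wells; wells of about 8 µL received 7.5 nL stock; the first replicate is given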
rRNA inh HTS: inhibitors of bacterial rRNA selective over humanized ribosomes; 350,000 compounds, 1.6% hits; AID 720706; GFP signal change (wild-type ribosome), % (concentration not given with the values); E. coli WT GFP vs humanized-ribosome RFP mutants, fluorescence, 24 h; active compounds read low; DMSO median 0, no signal -100;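 active = significant combined selectivity score with lowered wild-type GFP, culture density cut under 30%, mutant RFP and density less affected; inactive = any of these conditions unmet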; also: one replicate is shown; some compounds called inactive have numbers as strong as hits
Beta apoptosis: blocks beta cell apoptosis; AID 435005; INS-1E cytokine-induced death, ATP luminescence, 48 h; percent of positive-control rescue, neutral wells zero; 300,000 compounds, 0.8% hits; protection from apoptosis, % (concentration not given with the values);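 active = all replicates at 75% or more, or half of them and the mean; inconclusive = half reach 75% but not the mean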;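 also: 0% = cytokine-treated negative control wells and 100% = positive control rescue; higher means more ATP so stronger rescue from cytokine killing; wells of about 40 µL received 100 nL stock; the first replicate is given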
Vif A3G: inhibitors of Vif binding to APOBEC3G peptide, primary screen, biochemical, TR-FRET, GST-Vif 1-94, biotin-A3G peptide, dose response retest (AID 1117319); 260,000 compounds, 0.57% hits; TR-FRET GST-Vif / biotin-A3G peptide binding; higher % means a stronger effect; test concentration not given here; strong numbers were not always called active; one-dose inhibition, %; IC50 in µM for titrated hits;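 active = above the screen mean plus three standard deviations and confirmed in dose response; inconclusive = results disagree or hit not tested in dose response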;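 also: Vif residues 1-94 fused to GST binding biotinylated APOBEC3G peptide 110-148; 0% = full assay without inhibitor and 100% = GST in place of GST-Vif; retest series ran down from 100 µM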
RanGTP-Impb inh: inhibitors of RanGTP-importin-beta interaction, primary screen, biochemical, FRET, CFP-Ran, YFP-importin-beta, homogeneous | cell-free CFP-Ran/YFP-importin-beta FRET ratio | AID 2216 | 300,000 compounds, 1.1% hits | inhibition, % (no concentration beside the values);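 active = most replicates above 15%; inconclusive = exactly half above 15%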;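 also: 0% = DMSO wells and 100% = Ran loaded with GDP instead of GTP; wells of about 40 µL received 100 nL stock; the first replicate is given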
AF4-AF9 inh: MLL-AF4/AF9 protein interaction inhibition; inhibition, % at 10 µM; AID 651704; 350,000 compounds, 0.47% hits; P42568; AlphaScreen, biotin-AF4 peptide binding to FLAG-AF9;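 active = every replicate reaching a set inhibition limit, whatever the replicate mean, cut at about 25% in these data; inconclusive = mean inhibition reaches that limit but some replicates miss it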;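 also: 0% = plate neutral control median and 100% = total signal loss; the record names both 10 and 1 µM as test concentration; the first replicate is given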
Target sequence (P42568 whole entry, looked up): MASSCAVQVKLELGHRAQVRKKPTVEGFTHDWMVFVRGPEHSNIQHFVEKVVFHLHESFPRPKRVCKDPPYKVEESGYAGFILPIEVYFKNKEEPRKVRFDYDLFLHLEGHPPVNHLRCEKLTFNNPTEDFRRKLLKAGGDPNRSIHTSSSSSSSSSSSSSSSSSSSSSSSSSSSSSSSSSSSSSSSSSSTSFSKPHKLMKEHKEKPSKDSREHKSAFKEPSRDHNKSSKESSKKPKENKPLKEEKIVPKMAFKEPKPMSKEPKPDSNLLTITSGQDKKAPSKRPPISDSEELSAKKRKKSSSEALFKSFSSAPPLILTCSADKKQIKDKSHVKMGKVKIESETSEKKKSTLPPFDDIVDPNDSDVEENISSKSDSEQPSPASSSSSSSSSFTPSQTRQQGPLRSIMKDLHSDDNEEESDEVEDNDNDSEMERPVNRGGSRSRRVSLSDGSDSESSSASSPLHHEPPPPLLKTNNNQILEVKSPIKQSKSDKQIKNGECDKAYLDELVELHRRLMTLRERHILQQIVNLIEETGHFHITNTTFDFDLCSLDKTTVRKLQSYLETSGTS
Bfl-1 A1 inh: inhibitors of the anti-apoptotic protein A1, read as caspase activation; 330,000 compounds, 0.066% hits; caspase activation, % (concentration not given with the values); MEF A1-2A-BIM cells, Caspase-Glo 3/7 luminescence, 3 h; percent of clofoctol response, vehicle zero;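 active = over half of replicate activation scores above 10%, or exactly half above 10 with the replicate mean above 10; inconclusive = replicate mean below 10 yet half the replicates above 10; inactive = over half of replicates below 10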;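 also: wells of about 30 µL received 50 nL stock; many hits fall short of the cut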
rRNA inh HTS OD600: also measured in rRNA inh HTS; calls as there; OD600 change, %; measured here: OD600 growth;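 optical density of the mix in the first replicate; 0 = DMSO median and -100 = no signal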
rRNA inh HTS RFP: further read-out of rRNA inh HTS, marked with its call; RFP signal change, %; measured here: RFP humanized mutant strains;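 first replicate; 0 = DMSO median and -100 = no signal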
* = called active by the depositor; ? = inconclusive; . = no result given.

SMILES | T cruzi inh | Calb FLC | rRNA inh HTS | rRNA inh HTS OD600 | rRNA inh HTS RFP | Beta apoptosis | Vif A3G | RanGTP-Impb inh | AF4-AF9 inh | Bfl-1 A1 inh
Cc1ccc(Nc2c(-c3ccc(N(C)C)cc3)nc3ncccn23)cc1 | 7 | 1 | 5 | 7 | -1.6 | -5 | -8% | 7.2 | 5.5 | 0.4
COc1ccccc1OCCn1cc(C(=O)c2ccco2)c2ccccc21 | 12 | 23 | . | . | . | 1 | -9% | 6.7 | . | 0.7
O=C1Cn2c(nc3ccccc32)N1c1ccccc1F | -11 | 1 | . | . | . | 3 | 16% | 6.8 | . | 0.0
c1cc2ccc3ccc(-n4cnnn4)c4ccc(c1)c2c34 | 9 | -1 | . | . | . | 17 | -8% | -1.8 | . | 0.1
CCOC(=O)c1cccc(Nc2ncnc3ccc(C)cc23)c1 | 33 | 5 | . | . | . | 14 | 4% | 3.0 | . | -0.1
N/C(=N\OC(=O)CCCOc1ccc(Cl)cc1Cl)c1ccncc1 | 25 | 4 | -51 | -47 | -17 | -7 | -2% | 0.8 | -5.9 | 0.1
COc1ccc(-c2[nH]ncc2CN2CCSCC2)c(OC)c1 | -12 | -2 | 7 | 7 | 2.5 | -5 | 5% | -2.0 | 0.1 | -0.4
Cc1ccc(C(=O)CS(C)(=O)=O)cc1 | -10 | -3 | . | . | . | -7 | 2% | -0.3 | . | 0.1
CCc1nc2nc(C)c(NS(=O)(=O)c3ccc(Br)s3)c(=O)n2[nH]1 | -11 | -3 | -7 | 4 | 1.1 | -9 | . | 3.2 | -9.4 | 0.6
COc1ccc([C@@H]2[C@@H]3C(=O)N(C(C)(C)C)C(=O)[C@@H]3[C@]3(Cc4ccccc4)C(=O)N(c4cccc(Cl)c4)C(=O)N23)cc1 | 10 | -9 | . | . | . | 2 | . | 2.5 | 3.7 | 1.6
COc1ccc(-c2nc(SC)n(C)c(=O)c2C#N)cc1OC | 4 | 10 | . | . | . | -7 | -3% | -3.9 | . | -0.5
CC(C)NC(=O)CN(Cc1ccc(F)cc1)C(=O)CCC(=O)Nc1nccs1 | 0 | -5 | 3 | 13 | -1.5 | -9 | -8% | -1.9 | -17 | -0.1
Cc1csc(NC(=O)C(C)N2C(=O)c3ccccc3S2(=O)=O)n1 (stereo unspecified) | -5 | -2 | 3 | 6 | -3.1 | -8 | . | -2.8 | -0.3 | 0.5
Cn1ncc([N+](=O)[O-])c1C(=O)Nc1nccs1 | -11 | 7 | . | . | . | -7 | -6% | -0.3 | . | 0.1
CSc1nnc(NC(=O)c2nc(S(=O)(=O)Cc3ccccc3)ncc2Cl)s1 | -13 | -9 | 2 | 5 | -2.0 | . | . | 2.4 | 0.7 | .
CCOC(=O)C1C(c2ccccc2O)NC(=O)NC1(O)C(F)(F)F (stereo unspecified) | -13 | -22 | 5 | 8 | -0.1 | -11 | . | -0.3 | 0.4 | 0.5
CSC1=NCCN1C(=O)c1cccc(Br)c1 | -13 | 2 | . | . | . | 2 | 10% | -0.7 | . | 0.7
COc1ccc(CCN=C(NS(=O)(=O)c2ccccc2)c2ccccc2)cc1OC | -7 | -6 | -4 | -2 | -0.8 | -2 | 2% | 3.1 | -0.9 | -0.7
CSc1ccc(/C=C2\NC(=O)NC2=O)cc1 | -13 | 0 | 5 | 5 | 0.6 | 1 | . | 1.1 | -0.5 | -0.9
NC(=S)N=Nc1c(O)n(Cc2ccc(Br)cc2)c2ccccc12 | 26 | -1 | . | . | . | 11 | 17% | -0.5 | . | -0.2
CC(C#Cc1c([C@@H](C)Oc2ccccc2)nnn1Cc1ccccc1)Oc1ccccc1 (stereo partly specified) | -2 | -10 | 8 | 4 | 0.1 | -6 | . | -0.6 | 0.2 | -0.5
COc1ccc(N2C(=O)CCC(C(=O)NCCCN3CCC(C)CC3)C2c2ccc(OC)c(OC)c2)cc1 (stereo unspecified) | -26 | -4 | 3 | 2 | -2.5 | -4 | -6% | 1.3 | -4.6 | 0.9
CC(=O)c1sc(N/N=C\c2ccc(N(C)C)cc2)nc1C | 18 | -4 | 2 | -1 | -1.6 | 8 | 5% | 0.2 | -3.1 | -3.9
COC(=O)C1=C(C)OC(N)=C(C#N)C1c1ccccc1F (stereo unspecified) | -1 | 4 | . | . | . | -6 | -1% | -15 | . | 0.1
Fc1ccc(-n2nnc(-c3ccccc3Br)n2)cc1 | -11 | -1 | -8 | -8 | 0.4 | 0 | . | -2.8 | -2.1 | 0.1
COc1cc(CCC(=O)OCC(=O)Nc2cccc(S(N)(=O)=O)c2)cc(OC)c1OC | -9 | -20 | . | . | . | -14 | 10% | 0.5 | -6.8 | -0.1
Cc1ccc2nc(-c3sc4nc(C)ccc4c3N)[nH]c2c1 | 14 | 1 | . | . | . | 4 | -9% | 1.8 | . | 0.5
O=C(CN1CCC(n2nnc3cc(F)ccc32)CC1)NNC(=O)c1ccccc1 | -12 | -6 | 15 | 3 | 4.3 | -3 | -1% | 0.7 | 4.9 | 0.3
Cc1nn(Cc2ccccc2Cl)c(Cl)c1/C=C/C(=O)OCC(=O)NC1CCS(=O)(=O)C1 (stereo unspecified) | -5 | ? | -36 | -50 | -3.3 | . | . | 1.3 | 4.9 | 0.2
Cc1ccc(S(=O)(=O)Nc2c(C)nn(C)c2C)cc1C | 3 | -5 | -6 | -2 | -3.4 | 4 | -2% | . | 0.6 | 0.9
Cc1cccnc1NC(=O)CN1C(=O)COc2ccc(Cl)cc21 | -9 | 1 | 3 | 4 | -0.2 | -1 | . | 1.2 | -14 | 0.7
Cn1c(=O)oc2cc(S(=O)(=O)N3CCN(Cc4ccc5c(c4)OCO5)CC3)ccc21 | 3 | -33 | -3 | -1 | 0.3 | . | 0% | 2.2 | . | 1.6
CCOC(=O)C1=C(COC(=O)/C=C/c2cccc(OC)c2)NC(=O)NC1C (stereo unspecified) | -5 | 4 | -5 | -13 | 0.2 | -2 | . | 1.9 | 3.6 | 3.0
CC1Oc2ccccc2C=C1/C=N\NC(=O)c1cccnc1 (stereo unspecified) | 1 | 0 | -11 | -10 | -2.7 | 4 | -5% | 1.4 | 0.9 | 0.0
COc1cccc(OC)c1OCCCCc1c(C)n[nH]c1C | 1 | ? | -24* | -19* | -3.1* | -8 | -1% | -1.7 | 2.7 | 0.1
O=C1N/C(=N\S(=O)(=O)Cc2ccccc2)S/C1=C/c1cccc([N+](=O)[O-])c1 | -5 | 0 | -2 | -4 | -1.2 | -9 | 11% | -0.5 | -6.6 | -0.3
Cc1onc(-c2c(Cl)cccc2Cl)c1/C(N)=N/OC(=O)C1CC1 | -3 | -11 | -19 | -9 | -1.0 | . | . | -1.0 | -3.2 | -1.0
N#Cc1nc(-c2ccco2)oc1N1CCN(c2ccccc2)CC1 | -10 | 4 | . | . | . | -1 | 8% | -0.1 | . | 0.4
COc1nc2ccccc2nc1CCC(=O)O | -9 | 3 | 15 | 14 | -0.3 | . | 31% | -3.3 | 0.0 | 1.6
Cc1sc(NC(=O)Cn2[nH]c(=O)c3ccccc3c2=O)nc1-c1ccccc1 | -15 | 3 | . | . | . | 3 | . | -2.3 | . | 0.1
CN(C)S(=O)(=O)N1C(=O)c2ccccc2C1=O | 6 | 3 | 11 | 6 | 7.1 | -1 | 6% | 4.4 | -3.2 | 1.9
CC(C)(C)C1CCc2onc(C(=O)Nc3cccnc3)c2C1 (stereo unspecified) | 9 | 19 | 5 | 2 | 7.2 | -4 | 3% | -1.1 | -6.6 | 0.3
COC(=O)CCC(=O)Nc1sc2c(c1C#N)CCCC2 | 5 | -1 | . | . | . | 1 | -1% | 1.0 | . | 1.5
COc1ccc(/C=C/C(=O)OCC(=O)Nc2ccc(OC)c(S(=O)(=O)N3CCCCC3)c2)cc1 | -4 | 1 | 3 | -3 | 1.6 | -11 | 29% | -3.3 | -16 | -0.7
O=C(O/N=C1\CCS(=O)(=O)c2sccc21)c1ccccc1 | -5 | 5 | . | . | . | 0 | 5% | 2.1 | . | -0.3
NC(=NCc1ccco1)NC(=O)c1ccccc1 | 3 | -3 | -2 | 6 | 4.2 | -5 | . | -1.5 | 4.9 | 0.5
CN(C)c1ccc(/C=N/n2c(C3CCCCC3)n[nH]c2=S)cc1 | 23 | 15 | 0 | 5 | -14 | -1 | 7% | ? | -3.0 | -0.2
Cc1ccc(C(=O)C2CCN(CC(=O)Nc3ccc(N(C)C)cc3)CC2)cc1 | 14 | -37 | . | . | . | 1 | 0% | 0.9 | . | 0.7
Cc1ccccc1NC(=O)CSc1nc(N)c(C#N)c(-c2cccs2)c1C#N | 9 | 3 | . | . | . | 16 | -39% | 1.8 | . | -0.4
CCOCCCNC(=O)CN1C(=O)/C(=C\c2ccc(C)cc2)Sc2ccccc21 | 1 | 42 | 9 | -3 | -0.4 | 8 | 1% | 0.1 | 0.8 | 0.1
CCN(CC(=O)Nc1c(F)cccc1F)C(=O)C(C)SCc1nc2sc(C)c(C)c2c(=O)[nH]1 (stereo unspecified) | 2 | 11 | 13 | -5 | 2.7 | -2 | -5% | -4.4 | 22 | 0.2
CCN(CC)CCN(Cc1cc2cc3c(cc2[nH]c1=O)OCCO3)C(=S)NCC(C)C | 36 | -1 | -4 | 0 | -2.5 | -6 | -2% | -4.4 | 4.7 | -0.2
Cc1nn2c(N)c(C#N)cnc2c1-c1ccccc1 | -6 | -3 | . | . | . | -2 | ? | 0.7 | . | 0.0
CC(C)C(OC(=O)c1nsc(Cl)c1Cl)C(=O)NCC1CCCO1 (stereo unspecified) | -7 | 2 | 1 | 5 | -1.4 | -9 | . | -5.0 | 0.1 | -0.3
O=[N+]([O-])c1ccc(N2CCN(S(=O)(=O)Cc3ccccc3)CC2)cc1N1CCOCC1 | 6 | 1 | . | . | . | 5 | -4% | 8.0 | . | -1.2
O=C(CSc1nnnn1Cc1ccccc1)c1ccccc1F | -3 | 0 | -28 | -33 | -6.8 | -1 | 7% | -1.0 | -1.3 | 0.2
CCCCN(C(=O)CCC(=O)OCC(=O)NCc1ccccc1)c1c(N)n(CCC)c(=O)[nH]c1=O | . | . | . | . | . | -1 | -6% | . | -0.3 | -1.1
COc1ccc(N2CCN(C(=O)CCNC(=O)c3ccc(Br)cc3)CC2)cc1 | 8 | 30 | 5 | 4 | -1.3 | -3 | 9% | 4.4 | -0.6 | 0.1
COCCNC(=S)N1CCC(C(=O)c2ccc(C)cc2)CC1 | -8 | 30 | 7 | 5 | 2.0 | -2 | 7% | -9.1 | 3.3 | 1.2
Cc1ccc(S(=O)(=O)N(C)CC(=O)Nc2nc3ccccc3s2)cc1 | 9 | -2 | . | . | . | 4 | 7% | 1.1 | . | -1.0

Screens from PubChem BioAssay.

An excerpt; rates above refer to the full screens.
